Screening data (PubChem)
CSC inhib: blocks cancer stem cells. inhibition, % at 7.5 µM. cancer stem cell-like cells viability, luminescence. actives 1.1% (n = 300,000). AID 2717;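 active = mean at 75% or more and at least half the replicates too; inconclusive = mean and replicates disagree; tested in HMLE shEcad cells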;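 also: 0% = median of negative and 100% = median of positive control wells; the first replicate is given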
Rce1 inhib: blocks yeast Ras-converting enzyme; Q03530; yeast membranes, quenched prenylated peptide cleavage fluorescence; calls only; actives 0.27% (n = 290,000); AID 2563;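 active = fall in fluorescence gain of 50% or more versus controls, with final raw signal at or below 3038400; inconclusive = same 50% fall but final raw signal above 3038400; inactive = fall in fluorescence gain under 50%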;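 also: plate controls were neutral control wells for no effect and wells lacking membranes for full effect; tested at 10 µM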
Target sequence (Q03530 whole entry, looked up): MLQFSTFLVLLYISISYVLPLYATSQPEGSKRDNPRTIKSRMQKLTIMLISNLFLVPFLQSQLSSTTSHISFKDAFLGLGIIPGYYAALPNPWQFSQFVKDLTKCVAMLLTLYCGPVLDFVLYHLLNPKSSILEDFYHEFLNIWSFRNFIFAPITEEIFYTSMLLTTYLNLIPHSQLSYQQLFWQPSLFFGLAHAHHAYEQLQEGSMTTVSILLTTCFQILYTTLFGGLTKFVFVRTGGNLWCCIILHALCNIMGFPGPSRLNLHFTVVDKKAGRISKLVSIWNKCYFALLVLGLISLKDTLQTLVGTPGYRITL
MT1-MMP act inh: MT1-MMP (human) activation inhibition. HT1080 RFP-PRO-GFP cells, GFP/RFP ratio fluorescence, overnight; percent of plate control window, DMSO zero. actives 0.061% (n = 360,000). AID 651647. GFP/RFP ratio change, % at 20 µM;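 active = GFP/RFP ratio change of at least 30% with cell ATP level not reduced by more than half and red fluorescence within 50% of control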; also: strong numbers were not always called active
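Compound: 20 µM single dose, 1% DMSO / System: HT1080 RFP-PRO-GFP cells / Controls: DMSO and RFP-L50D-GFP cell wells / Read-out basis: GFP/RFP fluorescence ratio / Schedule: overnight compound exposure at 37 °C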
UUG fidelity: modulators of start codon recognition fidelity in yeast. S. cerevisiae UUG-firefly luciferase reporter, luminescence/redox ratio. actives 0.13% (n = 350,000). activity score, % at 18.7 µM;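 active = replicate mean at a twofold rise or more, about +100% in these data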;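 also: firefly luciferase made from a UUG start codon reports start codon fidelity; reporter light over untreated wells divided by growth signal over untreated wells; some hits fall short of that in this replicate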
eIF4H FP inh: inhibitors of RNA binding by human eIF4H; Q15056; eIF4H fluorescence polarization binding assay; inhibition, % at 35 µM; actives 0.94% (n = 290,000);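 active = 50% or more with normal probe brightness, or confirmed in later tests; inconclusive = above 50% with abnormal brightness, or retests that disagree; inactive = below 50% or failed in later tests; about a fifth of its hits are not listed in these tables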;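 also: calls also rest on retests at 20 µM and on dose response follow-up; 0% = protein and probe with vehicle and 100% = probe without protein; strong numbers were not always called active; many hits fall short of the cut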
Env fusion inh: blocks HIV Env-driven cell-cell fusion. HeLa-JRFL Env/CEM21 cell fusion, luciferase. inhibition, % at 12.3 µM. actives 1.1% (n = 360,000). AID 651610;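 active = mean replicate inhibition score of at least 50 and every replicate individually at or above 50; inconclusive = only one of the two criteria met; inactive = mean below 50 and not all replicates reaching 50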;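 also: 0% = plate neutral controls and 100% = maraviroc near 300 nM; one replicate is shown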
PABP polyA inh: PABP-poly(A) binding inhibition | P11940 | PABP-poly(A) RNA binding, fluorescence polarization | inhibition, % at 35 µM | actives 1% (n = 290,000);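 active = 50% or more with normal probe brightness, or confirmed in later tests; inconclusive = above 50% with abnormal brightness, or retests that disagree; inactive = below 50% or failed in later tests; about a fifth of its hits are not listed in these tables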;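 also: calls also rest on retests at 20 µM and on dose response follow-up; controls were probe without protein and protein plus probe with vehicle; some compounds called inactive have numbers as strong as hits; many hits fall short of the cut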
MT1-MMP act inh RFP: further read-out of MT1-MMP act inh, marked with its call; RFP signal change, %; measured here: RFP expression control read;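 0 = vehicle wells; hits needed this value within 50% of zero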
* hit, by the source's call; i = inactive; u = inconclusive; x = not tested or not shown. Some of the compounds tested (hit frequency here may not be typical).

#1 Cc1ccc(C(=O)NC(=S)N2CCN(c3ccc([N+](=O)[O-])cc3)CC2)cc1
#2 CC(C)SCc1cc(N2CCCC2)nc(-c2ccccc2)n1
#3 Cn1c(SCC(=O)Nc2ccc3c(c2)OCO3)nnc1C(F)(F)F
#4 CC1(C)Cc2nc(N)c(C(=O)NCCO)cc2CO1
#5 Cn1c(N2CCCC2)nc2c1c(=O)n(Cc1ccc(F)cc1)c(=O)n2C
#6 CN(C)CCO/N=C(\c1ccc(Br)cc1)c1cccnc1
#7 CCCCN(C(=O)CSCc1ccc(C)cc1)c1c(N)n(Cc2ccccc2)c(=O)[nH]c1=O
#8 O=C(CCSc1nc(-c2ccc3c(c2)OCO3)cc(C(F)(F)F)n1)NCc1ccccc1
compound no.	1	2	3	4	5	6	7	8
CSC inhib	-1	x	-5	-2	-6	-14	x	3
Rce1 inhib	i	i	x	u	i	i	x	i
MT1-MMP act inh	16	0	4	1	7	-3	-19	-1
MT1-MMP act inh RFP	0	-2	7	1	-1	-2	-10	-8
UUG fidelity	-15	x	-13	7	-20	-1	-11	-15
eIF4H FP inh	-3	2	x	-5	-1	x	x	-5
Env fusion inh	x	5	x	x	-14	1	5	x
PABP polyA inh	-8	-9	x	-2	3	x	x	-2

#9 CCc1ccc(OCC(=O)OC2CCS(=O)(=O)C2)cc1 (centres undefined)
#10 Cc1cc(C)n(-c2ccc(-n3ccnc3)nn2)n1
#11 Cc1cccc(NC(=O)Nc2c(C)[nH]c(=O)[nH]c2=O)c1C
#12 Clc1ccc(Nc2nc3cccnc3s2)cc1
#13 CC(=O)Nc1nc2n(n1)C(c1ccc(F)cc1)C=C(c1ccccc1)N2 (centres undefined)
#14 FC(F)(F)COc1nc(N2CCCCC2)nc(N2CCNCC2)n1
#15 CCn1c(SCC(=O)N2CCCc3ccccc32)nc2c(c1=O)SC(C)C2 (centres undefined)
#16 COc1ccccc1NC(=O)C(=O)N1CCCC1
compound no.	9	10	11	12	13	14	15	16
CSC inhib	-2	-4	1	2	-11	9	-4	-3
Rce1 inhib	i	i	i	i	i	i	x	i
MT1-MMP act inh	10	-6	1	-1	-18	-18	-6	0
MT1-MMP act inh RFP	2	3	4	4	3	-9	-6	4
UUG fidelity	5	-20	-10	x	-18	-9	-4	x
eIF4H FP inh	-8	-4	-2	2	-8	-1	0	-15
Env fusion inh	x	x	3	-105	x	x	1	-13
PABP polyA inh	-1	-10	5	13	7	0	-7	-3

#17 C/C(=N/NS(=O)(=O)c1ccc(Br)cc1)c1ccc(NC(=O)c2ccc(C)o2)cc1
#18 CC(=O)Nc1cc(-c2ccc(F)cc2)[nH]n1
#19 Cc1cc(C)c2sc(N(CCCN(C)C)C(=O)CN3C(=O)c4ccccc4C3=O)nc2c1
#20 Cc1cccc(NC(=S)NN2CCN(C)CC2)c1C
#21 c1ccc2c(c1)oc1c(NCc3ccc4c(c3)OCO4)ncnc12
#22 Cc1ccc(NC(=O)c2nc[nH]c2C(=O)NCC(=O)OC(C)(C)C)cc1
#23 O=C(CSc1nc(-c2ccc(F)cc2)nc2ccc(F)cc12)Nc1cccc(C(=O)O)c1
#24 Cc1ccc(C)c(OCc2cc(C(=O)N(C)Cc3nccn3C)no2)c1
compound no.	17	18	19	20	21	22	23	24
CSC inhib	1	-8	-8	-8	7	8	-2	4
Rce1 inhib	i	i	i	i	i	i	i	i
MT1-MMP act inh	0	0	4	0	-4	8	1	0
MT1-MMP act inh RFP	-1	2	-1	0	-21	-3	4	0
UUG fidelity	-23	x	3	-20	-11	-8	x	-9
eIF4H FP inh	3	-5	-15	-1	-8	3	2	-5
Env fusion inh	x	2	u	x	x	-50	5	-2
PABP polyA inh	2	-3	-4	-4	5	10	-5	1

#25 Cn1nnnc1SCC(=O)NCc1cccc(C(=O)O)c1
#26 COc1ccccc1NC(=O)c1ccc(-n2cccn2)nc1
#27 COc1ccc(N2C(=O)CSC2c2ccc([N+](=O)[O-])cc2)cc1 (centres undefined)
#28 CC(C)c1ccc(NC2CCCN(C(=O)c3cc(C(C)C)[nH]n3)C2)cc1 (centres undefined)
#29 CNC(C)C#Cc1ccc2c(=O)c3c(OC)cccc3oc2c1 (centres undefined)
#30 CCOC(=O)C1(Cc2cccc(F)c2)CCN(Cc2ccc(COC)o2)CC1
#31 COc1ccccc1NC(=O)C1CCCCC1
#32 C=CCC1(NC(C)c2ccccc2)CCCCC1 (centres undefined)
compound no.	25	26	27	28	29	30	31	32
CSC inhib	-5	-2	-12	x	-5	6	x	-10
Rce1 inhib	i	i	i	i	i	i	i	i
MT1-MMP act inh	0	-2	1	2	x	1	4	0
MT1-MMP act inh RFP	0	-1	2	2	x	-3	-3	0
UUG fidelity	-9	-5	-2	7	x	1	-17	x
eIF4H FP inh	1	-7	-6	-4	0	8	1	3
Env fusion inh	-65	-51	-5	8	x	1	x	-6
PABP polyA inh	3	-5	3	0	9	7	-2	3

#33 CCN(CC)C(=O)c1sc2nc(-c3ccncc3)[nH]c(=O)c2c1C
#34 Cc1ccc(OCc2cc(C(=O)N3CCCCCCC3)no2)cc1C
#35 CSCCC(NS(=O)(=O)c1ccc(C)cc1)C(=O)N1CCN(C(C)=O)CC1 (centres undefined)
#36 CCC(C(=O)NCCCc1ccccc1)n1nc(C)c2c(C)n(-c3ccccc3)nc2c1=O (centres undefined)
#37 CC(=O)Oc1cccc(C(=O)Nc2cccc(C(=O)Nc3ccccc3C(=O)O)c2)c1
#38 COC(=O)c1c(NC(=O)CC2SC(N)=NC2=O)sc2c1CCC(C(C)(C)C)C2 (centres undefined)
#39 C=CCn1c(SC/C=C/c2ccccc2)nnc1-c1sc(N)nc1C
#40 O=C(O)c1ccc2c(c1)C(=O)N(NC(=O)c1ccccc1)C2=O
compound no.	33	34	35	36	37	38	39	40
CSC inhib	-5	-4	x	-6	-6	109*	-1	0
Rce1 inhib	i	i	i	i	i	i	i	i
MT1-MMP act inh	7	-1	-1	7	2	-3	0	10
MT1-MMP act inh RFP	8	0	3	-4	4	-1	-1	4
UUG fidelity	-7	-9	1	-5	-17	x	-14	-10
eIF4H FP inh	-3	-9	x	-8	0	10	2	-7
Env fusion inh	x	-25	x	-2	-38	-5	x	10
PABP polyA inh	1	12	x	-6	18	-1	4	-4

Random excerpt: 4 compounds from above
#30 CCOC(=O)C1(Cc2cccc(F)c2)CCN(Cc2ccc(COC)o2)CC1
#24 Cc1ccc(C)c(OCc2cc(C(=O)N(C)Cc3nccn3C)no2)c1
#20 Cc1cccc(NC(=S)NN2CCN(C)CC2)c1C
#39 C=CCn1c(SC/C=C/c2ccccc2)nnc1-c1sc(N)nc1C
compound no.	30	24	20	39
CSC inhib	6	4	-8	-1
Rce1 inhib	i	i	i	i
MT1-MMP act inh	1	0	0	0
MT1-MMP act inh RFP	-3	0	0	-1
UUG fidelity	1	-9	-20	-14
eIF4H FP inh	8	-5	-1	2
Env fusion inh	1	-2	x	x
PABP polyA inh	7	1	-4	4

Going on with the list.
#41 CC1=C(C(=O)Nc2ccccc2C(F)(F)F)C(c2ccc(C)s2)NC(=S)N1 (centres undefined)
#42 Cc1cc(N2CCCCC2)nc2ccc(NC(=O)CCC(=O)NCCC(C)C)cc12
#43 COc1ccc(C(=O)CSc2nc(C)cc(C)n2)cc1[N+](=O)[O-]
#44 O=C(Nc1ccc(S(=O)(=O)Nc2ncccn2)cc1)c1cncc(Br)c1
#45 COc1ccc2oc(=O)c(-c3cn4ccc(C)cc4n3)cc2c1
#46 Cc1ccc(S(=O)(=O)/N=C(\N)Nc2nc(C)c3cc(C)ccc3n2)cc1
#47 CCOc1cc(/C=C2/N=C(c3ccc(C(C)(C)C)cc3)OC2=O)cc(Cl)c1OS(C)(=O)=O
#48 CCCC(=O)N1CCN(c2ccc(NC(=O)C(C)(C)C)cc2)CC1
compound no.	41	42	43	44	45	46	47	48
CSC inhib	-11	-5	-9	1	x	-8	-9	-1
Rce1 inhib	i	i	i	i	i	i	x	i
MT1-MMP act inh	3	0	1	-4	1	0	-1	-1
MT1-MMP act inh RFP	-2	1	4	-5	-3	-4	0	2
UUG fidelity	x	-16	-7	x	x	6	8	-21
eIF4H FP inh	-12	-3	-4	-5	5	-1	-9	-11
Env fusion inh	-8	-58	3	2	-19	-26	-13	x
PABP polyA inh	-2	-12	3	1	15	-3	3	6

#49 Cc1cnc(NC(=O)CC2OC(=O)c3ccccc32)s1 (centres undefined)
#50 CN(CC(=O)NCCCN1CCOCC1)S(=O)(=O)c1ccc(F)cc1
#51 c1coc(C2Nc3ccccc3-c3nc4ccccc4n32)c1 (centres undefined)
#52 O=[N+]([O-])c1cc(S(=O)(=O)c2ccc(N3CCCCC3)c([N+](=O)[O-])c2)ccc1N1CCCCC1
#53 OC(CNC1CCCC1)COc1c(F)cc(Br)cc1F (centres undefined)
#54 CCOc1ccc(OCC)c(NC(=O)CC2Oc3ccc(C)cc3NC2=O)c1 (centres undefined)
#55 CC1=C(C(=O)OCC2CCCO2)C(c2ccc(Cl)cc2)NC(=O)N1 (centres undefined)
#56 COC(=O)c1c(-c2ccccc2)csc1NC(=O)CSc1ncnc2sc(C)c(C)c12
compound no.	49	50	51	52	53	54	55	56
CSC inhib	x	-16	22	3	17	29	-1	-9
Rce1 inhib	x	i	u	i	i	i	i	i
MT1-MMP act inh	1	2	-12	1	6	1	1	-6
MT1-MMP act inh RFP	2	5	-13	-16	4	-4	-1	-21
UUG fidelity	4	-19	-6	-16	-21	8	x	-21
eIF4H FP inh	x	5	-2	-5	-2	-4	-2	-9
Env fusion inh	-13	5	x	17	-19	27	7	x
PABP polyA inh	x	-13	7	-4	3	-4	-2	5

#57 NS(=O)(=O)c1cccc2c1c([N+](=O)[O-])cc1nc(O)c(O)nc12
#58 CCC(C)OC(=O)C1=C(C)NC2=C(C(=O)C(C(=O)OC)C(C)C2)C1c1ccc(N(C)C)cc1 (centres undefined)
#59 CS(=O)(=O)N(CC(=O)Nc1ccc(F)cc1F)C1CCCCC1
#60 Cc1nc(SCC(=O)Nc2cc(C(N)=O)cc(C(N)=O)c2)c2c(C)c(C)sc2n1
#61 COc1cc(S(=O)(=O)N2CCOCC2)ccc1NC(=O)COC(=O)COc1ccccc1
compound no.	57	58	59	60	61
CSC inhib	-17	-22	-12	6	-9
Rce1 inhib	x	i	i	i	i
MT1-MMP act inh	1	-1	-2	1	2
MT1-MMP act inh RFP	3	0	-1	4	4
UUG fidelity	-8	-2	-10	-9	x
eIF4H FP inh	x	-8	-5	-2	-9
Env fusion inh	-3	-69	-160	-7	-6
PABP polyA inh	x	-11	1	-12	-4
